Sa RN4220 lethal – S. aureus RN4220 growth inhibition; AID 1259311; OD600, 16 h; inhibition, % (no concentration beside the values); hit rate 0.33% among 330,000;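 active means z-score of -3 or lower and OD600 up to 0.18 on both plates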;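 further: plate controls were untreated cells for no effect and reference antibiotic for full effect; stock transfer was 100 nL into about 80 µL; one replicate is shown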
Sa ugtP lethal – kills S. aureus RN4220 lacking UgtP. S. aureus RN4220 ugtP deletion, OD600 growth, 16 h; some inactives read as strong as hits. growth inhibition, % (concentration not given with the values). hit rate 0.54% among 330,000. AID 1259309;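 active means z-score under -3 and OD600 up to 0.15 on both plates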;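 further: plate controls were untreated wells for no effect and antibiotic for full effect; wells of about 80 µL received 100 nL stock; the first replicate is given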
BJeLR lethal – kills HRASV12-expressing BJeLR cells | BJeLR (HRASV12) viability, CellTiter-Glo ATP luminescence, 48 h; reference of the scale not given here | inhibition, % (test concentration not listed) | hit rate 0.17% among 300,000 | AID 1554;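 active means replicate mean above 50%; inconclusive means above 50% but judged a plate artefact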;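 further: 50 nL library stock added to about 25 µL; numbers are from one replicate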
Autofluor counter – counter-screen for toxin protease inhibitors: compound fluorescence | compound autofluorescence counterscreen, microsphere flow cytometry; hits give high values | hit rate 3.1% among 360,000 | fluorescence intensity (test concentration not listed) | AID 624483;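 active means at least 3 SD above the mean of all compounds, about 16000 in these data; inconclusive means too few beads counted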;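 further: 100 nL of 1 mM stock went into each well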
PrP UTR inh – suppresses PrP 5' UTR mRNA reporter expression | inhibition, % (test concentration not listed) | hit rate 0.35% among 340,000 | cell-based PrP 5' UTR mRNA reporter, plate reader;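 active means every replicate at 50% or more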;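 further: 0 = median of the neutral control wells; tested in H4 reporter cells; numbers are from one replicate; inactives centre near -14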
Mtb hypoxia inh – Mtb hypoxia fluorescent reporter inhibition; AID 1159583; M. tuberculosis hypoxia-regulated fluorescent reporter, fluorescence; fluorescence inhibition, % (test concentration not listed); hit rate 0.1% among 300,000;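 active means 35 to 45% if threefold the growth effect, above 45% if 1.5-fold the growth effect; inactive means the rest, general growth blockers included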;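 further: wells of about 50 µL received 100 nL stock; 0% = vehicle wells and 100% = reference inhibitor wells; whole bacteria with a GFP reporter of the hypoxia response; strong numbers were not always called active; many hits fall short of the cut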
Mtb hypoxia inh growth – second read-out of Mtb hypoxia inh, no call of its own (marks repeat the call); growth inhibition, %; measured here: M. tuberculosis growth (absorbance);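 0% = vehicle and 100% = reference antibiotic; read after six days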
An asterisk follows results filed as active; ? = inconclusive; · = not tested or not shown. Outcome played no part in choosing rows; about 4% have a hit in one of these screens.

SMILES | Sa RN4220 lethal | Sa ugtP lethal | BJeLR lethal | Autofluor counter | PrP UTR inh | Mtb hypoxia inh | Mtb hypoxia inh growth
CCC(C)(C)n1nnnc1C(c1ccc(O)cc1)N1CCc2ccccc2C1 (stereo not given) | 0.8 | 1 | -1 | 4236 | -24 | 2 | 4
O=C(O)c1cc(NS(=O)(=O)c2ccc(N3CCOCC3)c([N+](=O)[O-])c2)cc(C(=O)O)c1 | 3.3 | 7 | -9 | 2411 | 0 | 10 | 7
NC(=O)Cn1cnc2c(nnn2-c2cccc(Cl)c2)c1=O | 0.7 | 8 | 11 | 3742 | -11 | 3 | -5
CNC(=O)C(C#N)=c1sc(=CC(=O)OC)c(=O)n1-c1ccccc1 | 1.4 | -3 | · | · | · | 17 | 3
CCCOc1ccc(-c2c(C(=O)NN=Cc3ccccc3OCC)nnn2-c2nonc2N)cc1 | 2.1 | 0 | · | · | · | -2 | 7
c1ccc(-n2c(-c3ccco3)nnc2-c2ccco2)cc1 | -3.2 | 9 | -15 | 4788 | -17 | · | ·
Cc1ccc2nc(N3C(=O)C(O)=C(C(=O)c4cc5ccccc5o4)C3c3cccs3)sc2c1 (stereo not given) | · | · | -1 | 6363 | -48 | · | ·
CC(C)CCNC(=O)c1c(N)n(Cc2ccc3c(c2)OCO3)c2nc3ccccc3nc12 | 1.0 | 15 | -12 | 10113 | -20 | 4 | 4
CC(=O)NN=C(C)c1ccc(Br)cc1Br | 3.2 | 2 | · | · | · | 6 | 4
CCOc1ccc(C(=O)NC2CC3CCCC(C2)N3CC(C)C)cc1 (stereo not given) | · | · | 1 | 4586 | -12 | · | ·
CCOC(=O)C1C(=O)CC(C)(O)C(C(=O)OCC)C1c1cccc(OC(F)(F)C(F)F)c1 (stereo not given) | 24 | 0 | 7 | 9487 | 3 | 9 | 4
COc1ccc(C(=O)NN=Cc2c[nH]c3ccccc23)cc1 | 4.4 | 12 | · | · | · | 10 | 17
CCOc1ccc2nc(SCC(=O)NCc3ccccc3)[nH]c2c1 | -3.5 | 14 | 3 | 3208 | -12 | 8 | 3
N#Cc1ccccc1OCC(=O)OCC(=O)NC1CC1 | 3.5 | 1 | · | 5526 | -17 | 5 | 6
O=C(CCCCn1c(=O)[nH]c2ccsc2c1=O)NCc1ccc2c(c1)OCO2 | -3.5 | -3 | 4 | 5900 | -1 | -6 | 5
CCOc1ccc(C(CC(=O)O)NC(=O)C(CC)c2ccccc2)cc1 (stereo not given) | 4.7 | 17 | 5 | 3918 | -23 | 3 | 8
CCOc1ccccc1Nc1nnc(SCc2ccc(C(=O)OC)o2)s1 | 6.4 | 5 | 2 | 10639 | -15 | 3 | 12
COc1ccc(N2CC(C(=O)N3CCN(c4ccccc4F)CC3)CC2=O)cc1 (stereo not given) | 2.2 | -1 | -1 | 4512 | -15 | -1 | -5
Cc1ccc(S(=O)(=O)N(CC(=O)Nc2ccc(C)c(Cl)c2)C(=O)N2CCN(C)CC2)cc1 | -0.3 | 0 | 2 | 6268 | -14 | -4 | 8
O=C(Nc1ccon1)c1nc[nH]c1C(=O)N1CCN(c2ccccc2)CC1 | 3.1 | 2 | · | 4795 | -4 | 21 | 11
COc1ccc(NS(=O)(=O)c2ccc(NS(=O)(=O)c3cccc(C(=O)O)c3)cc2)cc1 | -0.3 | 12 | -9 | 5142 | -12 | -6 | 8
CCn1c(=O)c2cc(C(=O)NCCOC)sc2c2ccccc21 | 0.8 | -5 | 3 | 3394 | -2 | 5 | -4
CC1CN(c2oc(-c3ccco3)nc2C#N)CC(C)O1 (stereo not given) | 1.9 | -7 | -11 | 3275 | -32 | -3 | 7
O=C(CSc1ncnc2c1oc1ccccc12)NCC1CCCO1 (stereo not given) | 2.4 | -11 | -3 | 7999 | -33 | 3 | 7
CC1(C)C(c2ccccc2)=NC(c2cccnc2)=[N+]1[O-] | 9.7 | 10 | -2 | 4292 | -25 | · | ·

(further entries)
SMILES | Sa RN4220 lethal | Sa ugtP lethal | BJeLR lethal | Autofluor counter | PrP UTR inh | Mtb hypoxia inh | Mtb hypoxia inh growth
O=C(NCc1ccccn1)C1CCN(S(=O)(=O)N2CCCC2)CC1 | 2.8 | 0 | 0 | 9727 | 5 | 3 | 5
Cc1nc2scc(-c3ccccc3)c2c(=O)n1N=Cc1ccco1 | 25 | 21 | · | · | · | 8 | 3
CCc1ccc2oc(C(=O)NCCc3ccc(S(N)(=O)=O)cc3)cc(=O)c2c1 | 4.0 | 14 | 1 | 3304 | -3 | -4 | 10
CCc1cc(-c2onc(C)c2-c2cscn2)c(O)cc1OC | 4.3 | 0 | -6 | 4313 | -22 | 3 | 7
Cn1c(=O)cc(N)n(Cc2ccccc2)c1=O | 1.4 | 4 | 2 | 3867 | -4 | 19 | 6
COc1ccc(N2CCN(C(=O)CSc3nc4[nH]ncc4c(=O)n3-c3cccc4ccccc34)CC2)cc1 | 3.0 | -8 | -3 | 5374 | -18 | 1 | 13
O=C1NN(c2cccc(Br)c2)C(=O)/C1=C\c1ccc(O)cc1 | · | · | -3 | 3839 | -33 | · | ·
COc1ccc(CCC(=O)OCC(=O)NCc2ccc(OC)c(OC)c2)cc1OC | 3.2 | 5 | · | · | 0 | -1 | 1
Cn1nc(OCC(=O)O)cc1C(F)(F)F | 4.0 | 8 | -3 | 5461 | -37 | 9 | 4
O=C(NCC1CCCO1)C(c1cccs1)N(Cc1cccs1)C(=O)Cn1nnc(-c2cccs2)n1 (stereo not given) | 2.7 | 5 | · | 3841 | -15 | · | ·
CCN(CC)S(=O)(=O)c1ccc(C(=O)OCn2nnc3ccccc3c2=O)cc1 | 3.0 | -1 | -2 | 2741 | -13 | · | ·
CC(C)Oc1cccc(C2NC(=O)c3ccccc3O2)c1 (stereo not given) | 3.5 | -3 | -3 | 4525 | -22 | -5 | 14
CCn1c(SCC(=O)NNC(=O)c2ccccc2)nnc1-c1ccncc1 | -3.2 | -3 | 4 | 22311* | 8 | -8 | 5
O=C(CSc1n[nH]c(-c2cccnc2)n1)Nc1ccc(Br)cc1 | 7.7 | 12 | -1 | 3039 | -21 | 1 | -1
Cc1cc(C)nc(/N=C(\NC(=O)C(C)(C)C)Nc2ccccc2)n1 | · | · | -1 | 3730 | -28 | · | ·
Cc1ccc(NC(=O)C2CCN(S(=O)(=O)c3c(C)noc3/C=C/c3ccco3)CC2)nc1 | 1.5 | -1 | -5 | 2550 | -9 | 10 | 10
CC(C)NC(=O)c1cc2c(-c3ccc(Cl)cc3)nn(C)c2s1 | -0.8 | 0 | 6 | 4981 | -4 | · | ·
CCc1nc(NCc2ccc3c(c2)OCO3)c2oc3ccccc3c2n1 | 28 | 3 | 8 | 23489* | -38 | · | ·
CN1CCN(CC(=O)Nc2ccc([N+](=O)[O-])cc2Br)CC1 | 5.5 | 8 | -6 | 4319 | -33 | 15 | 13
COc1cccc(NC(=O)c2cc([N+](=O)[O-])ccc2NC(=O)CNCC2CCCO2)c1 (stereo not given) | 4.3 | 0 | 7 | 2553 | -13 | 17 | 7
N#CCC(=O)Nc1ccc(C(=O)OCC(=O)N2CCCC2=O)cc1 | 1.1 | -1 | -7 | 6187 | -1 | -1 | 5
Cc1c(C#N)c(N)c(C(=O)c2ccccc2)n1Cc1ccccc1 | 2.1 | -1 | 6 | 2741 | -47 | · | ·
O=C(c1cccc(C(F)(F)F)c1)c1c[nH]c(C(=O)NCCCN2CCOCC2)c1 | 4.5 | 11 | -9 | 4179 | 3 | 10 | 3
COCCCN1CN=C(NS(=O)(=O)c2ccc(C)cc2)NC1 | 6.3 | 7 | -12 | 2729 | -9 | 0 | -1
Cc1cc(=O)[nH]c(SCC(=O)N2CCCCC2)n1 | 0.7 | 9 | -21 | 2905 | -6 | 6 | 0

In the list so far, 4 contain two or more sulfur atoms.
SMILES | Sa RN4220 lethal | Sa ugtP lethal | BJeLR lethal | Autofluor counter | PrP UTR inh | Mtb hypoxia inh | Mtb hypoxia inh growth
Cc1ccc2nc(N3C(=O)C(O)=C(C(=O)c4cc5ccccc5o4)C3c3cccs3)sc2c1 (stereo not given) | · | · | -1 | 6363 | -48 | · | ·
CCOc1ccccc1Nc1nnc(SCc2ccc(C(=O)OC)o2)s1 | 6.4 | 5 | 2 | 10639 | -15 | 3 | 12
COc1ccc(NS(=O)(=O)c2ccc(NS(=O)(=O)c3cccc(C(=O)O)c3)cc2)cc1 | -0.3 | 12 | -9 | 5142 | -12 | -6 | 8
O=C(NCC1CCCO1)C(c1cccs1)N(Cc1cccs1)C(=O)Cn1nnc(-c2cccs2)n1 (stereo not given) | 2.7 | 5 | · | 3841 | -15 | · | ·

Following part.
SMILES | Sa RN4220 lethal | Sa ugtP lethal | BJeLR lethal | Autofluor counter | PrP UTR inh | Mtb hypoxia inh | Mtb hypoxia inh growth
Cc1nc2nc(SCC(=O)NCc3ccco3)nn2c(C)c1Cc1c(F)cccc1Cl | 4.1 | 5 | -8 | 8660 | -21 | 6 | -1
CN1C(=O)N(C)C(=O)C2(Cc3cc([N+](=O)[O-])ccc3N(C)C2)C1=O | 4.5 | 10 | 7 | 4208 | -7 | 3 | 6
Cc1cc(OCC(=O)N2CCC(C(N)=O)CC2)c2c(C)cc(=O)oc2c1 | 3.9 | -6 | 2 | 5390 | -10 | · | ·
CN(Cc1ccccc1)C(=O)c1ccc(NC(=O)Cc2cccc(NC(=O)C3CCCN(C(=O)CCc4ccccc4)C3)c2)cc1 (stereo not given) | -0.9 | -10 | · | 3814 | -14 | -7 | 3
C/C(=N\NC(=S)Nc1ccccc1)c1c(O)n(C)c(=O)n(C)c1=O | 3.8 | 16 | -6 | 2165 | -20 | 1 | 5
N#Cc1c(/N=C/c2cccs2)sc2c1CCCCC2 | · | · | 5 | 7863 | -45 | · | ·
NC(=NC(=O)c1ccccc1)N1CCN(C(c2ccccc2)c2ccccc2)CC1 | 0.6 | 49 | -11 | 3421 | -21 | 4 | -2
CCN(CC)S(=O)(=O)c1ccc(NCCc2ccccn2)nc1 | 4.1 | 3 | -6 | 5488 | -14 | 2 | -4
COc1ccc(/C=C2\N=C(SC)SC2=O)cc1OC | 2.7 | 0 | 0 | 2390 | -6 | · | ·
CCOC(=O)N1CCN(C(=S)NC(=O)c2cc(Br)ccc2Cl)CC1 | 1.9 | 3 | 3 | 4250 | -18 | 17 | 14
COc1ccccc1CCC(=O)OCC(=O)Nc1cc(C)nn1-c1ccccc1 | 0.6 | -6 | 1 | 5334 | -11 | -1 | -5
O=C(CN1CCN(Cc2ccc(Cl)cc2)CC1)N/N=C/c1ccncc1 | · | · | -15 | 1967 | -13 | · | ·
CC(OC(=O)c1ccc(NC(=O)CC#N)cc1)C(=O)Nc1ccc(Oc2ccccc2)cc1 (stereo not given) | · | · | -1 | 4692 | -6 | · | ·
Cn1c(SCc2nc(-c3cccs3)no2)nnc1C1CCCCC1 | 5.0 | 1 | 6 | ? | -18 | · | ·
CC(=O)Nc1ccc2c(c1)C(N1CC3CCC(CC3)C1)c1ccccc1-2 (stereo not given) | -6.1 | -10 | · | 3861 | -2 | -7 | 18
O=c1cccc2n1CC1CC2CN(C(c2ccccc2)c2sc3ncnn3c2O)C1 (stereo not given) | -4.0 | -4 | 2 | 6620 | -19 | 0 | 2
CSc1nnnn1-c1c(C)cc(C)cc1C | 4.4 | 1 | 0 | 4589 | -14 | 13 | 5
CCn1cc(C(=O)NCc2ccc(Cl)cc2)c(=O)c2cc(S(=O)(=O)N(C)C)ccc21 | · | · | 0 | 3429 | -18 | · | ·
CCc1ccc(OCC(=O)NNC(=O)CSc2ncnc3sc(C)c(C)c23)cc1 | 2.3 | -6 | 9 | 11297 | -49 | 3 | 8
CCN(CC)C(=O)c1cnn(-c2ccccc2)c1NC(=O)c1ccco1 | 2.1 | 3 | 16 | 12813 | -15 | 1 | -11
CN(C)S(=O)(=O)c1cccc(COC(=O)CN2CCCCCC2=O)c1 | 3.1 | 4 | 6 | 3055 | -9 | 6 | 3
Cn1nc(C(=O)OCC(=O)N2CCc3ccccc32)c2ccccc2c1=O | 4.3 | 12 | 3 | 3382 | -3 | 0 | -1
CC(C)(C)c1ccc(C(=O)c2c[nH]c(C(=O)NCC3CCCO3)c2)cc1 (stereo not given) | 2.4 | -6 | 3 | 2321 | -3 | · | ·
CCN(CC)C(=O)C(=O)c1cn(CC(=O)N2CCc3ccccc3C2)c2ccccc12 | 3.6 | 1 | · | 3151 | -12 | 13 | -2
CCOc1ccc(NS(=O)(=O)c2ccc(C(=O)NCC(c3ccccc3OC)N3CCCC3)cc2)cc1 (stereo not given) | -0.8 | 8 | 1 | 6836 | -15 | 7 | -2

Source: PubChem BioAssay
